Screening data (PubChem BioAssay)
Vaccinia inh = blocks a specific stage of Vaccinia orthopoxvirus infection, primary screen, cell-based, single point. Vaccinia-infected cells, mCherry/Venus stage reporter fluorescence; active compounds read low; some inactives read as strong as hits. activity change (mCherry), % (test concentration not listed). 0.01% of 89,000 active. AID 1053133, 2014;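 active means mCherry past -33% and 40 or more points under the early reporter, replicates agreeing; inconclusive means past -33% without that gap or agreement; tested in A549 cells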;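 further: scaled between vehicle wells and reference inhibitor wells; 23 nL library stock went into each well; one replicate is shown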
Vaccinia inh Venus = recorded beside Vaccinia inh, whose call it bears; activity change (Venus), %; measured here: Venus reporter, other viral stage;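 negative = less Venus signal; first of two replicates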
Starred values were filed as active, the others as inactive; ? = inconclusive; nt = no result given.

entry	canonical_smiles	Vaccinia inh	Vaccinia inh Venus
1	CC(C)NC(=O)N[C@H]1CC[C@H](CC(=O)NC2Cc3ccccc3C2)O[C@H]1CO	9.9	5.4
2	O=C(Nc1cc(F)ccc1F)N1CC(=O)N2[C@@H](CO)[C@H](c3ccc(C#CC4CCCC4)cc3)[C@@H]2C1	-28.3	-18.2
3	CO[C@@H]1CN(C)C(=O)c2ccc(NC(=O)Nc3cc(F)ccc3F)cc2OC[C@@H](C)NC[C@@H]1C	-15.7	-2.9
4	C[C@@H]1CN([C@@H](C)CO)C(=O)Cc2cc(NC(=O)C3CC3)ccc2O[C@H]1CN(C)Cc1ccccc1	8.0	18.8
5	CO[C@H]1CN(C)C(=O)c2ccc(NC(=O)c3ccccc3F)cc2OC[C@H](C)N(C(C)=O)C[C@H]1C	0.4	2.1
6	COc1ccc(NC(=O)N(C)C[C@@H]2OCCCC[C@H](C)Oc3ccc(NC(=O)Nc4ccccc4)cc3C(=O)N([C@@H](C)CO)C[C@@H]2C)cc1	-18.1	-6.9
7	CC(C)C#Cc1ccc2c(c1)O[C@H](CN(C)Cc1ccccc1)[C@H](C)CN([C@H](C)CO)S2(=O)=O	-34.7	-24.0
8	COc1ccc(CN(C)C[C@H]2OCCCC[C@@H](C)Oc3ccc(N(C)C)cc3C(=O)N([C@@H](C)CO)C[C@@H]2C)cc1	?	nt
9	O=C(NCC1CC1)[C@@H]1[C@@H](CO)[C@@H]2Cn3c(ccc(-c4cccnc4)c3=O)[C@H]1N2C(=O)C1CCC1	4.0	-5.1
10	O=C(NC1CCCCC1)[C@H]1[C@H](CO)[C@H]2Cn3c(cccc3=O)[C@H]2N1CC1CCOCC1	17.5	12.6
11	C[C@@H](NC(=O)C[C@@H]1CC[C@H]2[C@@H](COC[C@@H](O)CN2C)O1)c1ccccc1	19.1	12.9
12	COc1ccc(/C=C/C=O)cc1	-0.5	-0.2
13	COc1ccc(NC(=O)Nc2cccc3c2O[C@H](CN(C)S(=O)(=O)c2cccs2)[C@H](C)CN([C@H](C)CO)C3=O)cc1	-14.3	3.2
14	C[C@@H]1CN([C@H](C)CO)C(=O)Cc2cc(NC(=O)CCC(F)(F)F)ccc2O[C@H]1CN(C)Cc1ccc(C(=O)Nc2ccccc2N)cc1	1.5	9.6
15	CCCC#Cc1cnc2c(c1)C(=O)N([C@@H](C)CO)C[C@H](C)[C@@H](CN(C)C(=O)NC1CCCC1)O2	6.0	0.2
16	O=S(=O)(c1ccccc1)N1CC2(C1)[C@H](c1ccccc1)[C@H](CO)N2CC1CCOCC1	0.7	9.4
17	C[C@H](CO)N1C[C@H](C)[C@@H](CN(C)C(=O)C2CCOCC2)Oc2ncc(C#CC(C)(C)O)cc2C1=O	23.9	4.4
18	COc1ccc2c3c(n(C)c2c1)[C@H](CO)N(C(=O)c1ccc(F)cc1)CC31CN(C)C1	-0.9	-6.8
19	C[C@H]1CN([C@@H](C)CO)S(=O)(=O)c2ccc(-c3cccnc3)cc2O[C@@H]1CN(C)C(=O)NC1CCCC1	0.5	0.3
20	N#C[C@H]1[C@@H](c2ccc(C#CC3CCCC3)cc2)[C@H](CO)N1C(=O)Nc1ccc(F)cc1	?	nt
21	CCCC#Cc1cnc2c(c1)C(=O)N([C@H](C)CO)C[C@H](C)[C@@H](CN(C)Cc1ccncc1)O2	14.7	2.4
22	C[C@@H]1CN([C@@H](C)CO)C(=O)c2cccc(NC(=O)Nc3ccc(F)cc3)c2O[C@H]1CN(C)S(=O)(=O)c1cccs1	8.4	-1.2
23	CC=Cc1ccc2n(c1=O)C[C@H]1[C@H](CO)[C@@H](C(=O)NCCC)N(CCC(F)(F)F)[C@@H]21 (mixture of isomers)	-15.2	0.8
24	COc1ccc(NC(=O)Nc2ccc3c(c2)C(=O)N([C@H](C)CO)C[C@H](C)[C@@H](CN(C)S(C)(=O)=O)O3)cc1	17.9	11.7
25	C[C@H](CO)N1C[C@H](C)[C@@H](CN(C)Cc2ccncc2)OCCCC[C@H](C)Oc2ccc(NC(=O)CCC(F)(F)F)cc2C1=O	3.8	5.3
26	COc1ccc(S(=O)(=O)N(C)C[C@H]2Oc3ccc(NC(=O)Cc4ccccc4)cc3CC(=O)N([C@H](C)CO)C[C@@H]2C)cc1	-4.6	0.8
27	Cc1noc(C)c1S(=O)(=O)Nc1ccc2c(c1)C(=O)N([C@@H](C)CO)C[C@H](C)[C@@H](CN(C)C(=O)Nc1ccccc1)O2	2.2	-3.0
28	C[C@@H](NC(=O)C[C@H]1C=C[C@H](NC(=O)c2cccnc2)[C@@H](CO)O1)c1ccccc1	13.0	5.3
29	COc1ccc(NC(=O)N(C)C[C@@H]2OCCCC[C@@H](C)Oc3ccc(NC(=O)NC4CCCCC4)cc3C(=O)N([C@@H](C)CO)C[C@@H]2C)cc1	4.8	3.6
30	C[C@H](CO)N1C[C@H](C)[C@@H](CN(C)S(=O)(=O)c2ccc(Cl)cc2)Oc2ccc(NC(=O)c3ccncc3)cc2C1=O	3.5	4.0
31	C[C@H](C(=O)N(C)C[C@@H]1OCc2ccccc2-c2c(n(C)c3ccccc23)C(=O)N([C@@H](C)CO)C[C@@H]1C)c1ccccc1	?	nt
32	C[C@H]1CN([C@@H](C)CO)C(=O)c2cc(C3=CCCCC3)cnc2O[C@H]1CN(C)C(=O)c1cccc(F)c1	-16.1	-6.0
33	CO[C@@H]1CN(C)C(=O)c2cc(NC(=O)C3CC3)ccc2OC[C@@H](C)N(Cc2ccc(F)cc2)C[C@@H]1C	-24.3	-17.1
34	C[C@H](CO)N1C[C@H](C)[C@H](CN(C)CC2CC2)OCCCC[C@H](C)Oc2ccc(NC(=O)Nc3ccc(C(F)(F)F)cc3)cc2C1=O	?	nt
35	C[C@H](CO)N1C[C@H](C)[C@@H](CN(C)S(=O)(=O)c2cccs2)OCCCC[C@H](C)Oc2ccc(NC(=O)CCC(F)(F)F)cc2C1=O	-17.2	-14.6
36	COc1ccc(NC(=O)N(C)C[C@H]2Oc3ccc(NC(=O)CCN4CCOCC4)cc3C(=O)N([C@H](C)CO)C[C@@H]2C)cc1	-6.0	-8.5
37	C[C@H]1CN([C@@H](C)CO)C(=O)Cc2cc(NS(=O)(=O)c3cccs3)ccc2O[C@H]1CN(C)CC1CCCCC1	-19.3	-16.6
38	C[C@@H]1CCCCO[C@H](CN(C)S(=O)(=O)c2ccc(F)cc2)[C@@H](C)CN([C@H](C)CO)C(=O)c2cc(NC(=O)Nc3cccc4ccccc34)ccc2O1	6.9	0.6
39	Cc1noc(C)c1S(=O)(=O)N(C)C[C@@H]1Oc2ccc(NC(=O)Nc3cccc4ccccc34)cc2CC(=O)N([C@H](C)CO)C[C@H]1C	3.4	6.4
40	CO[C@H]1CN(C)C(=O)c2cc(NC(=O)C3CC3)ccc2OC[C@H](C)N(CC2CC2)C[C@@H]1C	4.5	1.1
41	COc1ccc(NC(=O)N(C)C[C@H]2OCCCC[C@@H](C)Oc3ccc(NC(=O)CCCN(C)C)cc3C(=O)N([C@H](C)CO)C[C@@H]2C)cc1	19.5	13.3
42	CC(C)(C)[C@H]1C=C(C(=O)NCc2ccccc2)O[C@@H](OCCCCO)C1	13.0	6.0
43	O=C(C[C@@H]1C=C[C@H](NC(=O)NC2CCCCC2)[C@H](CO)O1)NCc1ccc(F)cc1	-9.6	0.6
44	COc1ccc2c3c(n(C)c2c1)[C@H](CO)N(C)CC31CN(S(=O)(=O)c2cccs2)C1	-7.6	-11.3
45	O=C(C[C@H]1C[C@H]2c3cc(NC(=O)C4CCC4)ccc3O[C@H]2[C@@H](CO)O1)NCc1ccccn1	7.8	10.0
46	COc1ccc(S(=O)(=O)Nc2ccc3c(c2)C(=O)N([C@@H](C)CO)C[C@@H](C)[C@H](CN(C)S(=O)(=O)c2c(C)noc2C)OCCCC[C@H](C)O3)cc1	-34.0	-23.9
47	COc1ccc(S(=O)(=O)N(C)C[C@H]2Oc3cc(-c4ccccc4OC)ccc3S(=O)(=O)N([C@H](C)CO)C[C@H]2C)cc1	?	nt
48	O=C(c1ccncc1)N1CC(=O)N2[C@H](C1)[C@@H](c1ccc(/C=C/c3ccccc3)cc1)[C@@H]2CO	-5.8	-8.3
49	O=C(C[C@H]1C=C[C@@H](NC(=O)C2CC2)[C@H](CO)O1)NCCCN1CCOCC1	-6.6	-7.5
50	COC(=O)[C@@H]1[C@@H](CO)[C@@H]2Cn3c(ccc(C4=CCCCC4)c3=O)[C@H]1N2CC1CC1	8.2	3.6
51	COc1ccccc1NC(=O)N1CC(=O)N2[C@H](C1)[C@@H](c1ccc(C#Cc3ccc(F)cc3)cc1)[C@@H]2CO	-33.8	-26.7
52	N#Cc1cccc(-c2ccc([C@@H]3[C@H](CO)N4CCCCN(C(=O)Nc5cccc(F)c5)C[C@@H]34)cc2)c1	?	nt
53	COc1ccc2c3c(n(C)c2c1)[C@@H](CO)N(Cc1nccs1)CC31CCN(C(=O)CN(C)C)CC1	4.4	0.7
54	C[C@@H]1CN([C@@H](C)CO)C(=O)c2cccc(NS(C)(=O)=O)c2O[C@@H]1CN(C)Cc1ccc(-c2ccccc2)cc1	-16.9	-1.7
55	C[C@@H](O)C#Cc1ccc([C@H]2[C@@H](CO)N3CCCCN(C(=O)c4ccncc4)C[C@H]23)cc1	26.8	14.1
56	COc1ccc(NC(=O)N(C)C[C@@H]2Oc3ccc(NS(=O)(=O)c4ccc(F)cc4)cc3C(=O)N([C@@H](C)CO)C[C@H]2C)cc1	36.3	25.0
57	CC1C=NC(S(=O)(=O)N2CC[C@H]3[C@@H](CO)N(C)c4ccc(C5=CCCCC5)cc4[C@H]32)=N1 (stereo partly specified)	2.9	3.3
58	O=C(C[C@@H]1CC[C@@H](NC(=O)c2ccc(F)cc2)[C@H](CO)O1)NCCc1ccccc1	0.4	-3.6
59	COCC(=O)Nc1ccc2c(c1)C(=O)N(C)C[C@@H](OC)[C@@H](C)CN(Cc1cccc(F)c1)[C@H](C)CO2	-1.6	-3.9
60	C[C@@H]1CN([C@@H](C)CO)C(=O)c2cc(NS(C)(=O)=O)ccc2O[C@@H]1CN(C)S(=O)(=O)c1ccc(F)cc1	11.8	8.3

Following part.
entry	canonical_smiles	Vaccinia inh	Vaccinia inh Venus
61	O=C(NC[C@@H]1CC[C@@H]2[C@@H](CN2S(=O)(=O)c2ccccc2[N+](=O)[O-])O1)c1cnccn1	-1.1	-7.3
62	OC[C@H]1[C@@H](c2ccc(-c3ccccc3)cc2)[C@H]2CN(Cc3cncnc3)CCCCN21	11.2	-2.8
63	O=C(c1cccc(F)c1)N1CCCCN2[C@H](C1)[C@@H](c1ccc(-c3ccc(F)cc3)cc1)[C@@H]2CO	?	nt
64	COc1ccc(S(=O)(=O)Nc2ccc3c(c2)CC(=O)N([C@@H](C)CO)C[C@H](C)[C@@H](CN(C)S(=O)(=O)c2ccc(Cl)cc2)O3)cc1	0.2	3.0
65	COc1ccc2c3c([nH]c2c1)[C@H](CO)N(C(=O)Nc1ccc(F)cc1)CC31CCN(S(=O)(=O)c2ccc(C)cc2)CC1	-33.2	-29.3
66	C[C@H](CO)N1C[C@H](C)[C@H](CN(C)Cc2cncnc2)Oc2cc(C#C[C@@H](C)O)ccc2S1(=O)=O	7.2	2.2
67	COc1ccccc1NC(=O)N1CCCCN2[C@H](CO)[C@H](c3ccc(-c4cccc(C)c4)cc3)[C@@H]2C1	6.7	11.9
68	C[C@@H]1CN([C@H](C)CO)C(=O)c2cc(-c3ccccc3F)cnc2O[C@@H]1CN(C)C(=O)c1cnccn1	17.7	10.4
69	O=C(Nc1ccccc1F)N[C@@H]1CC[C@H](CCNC(=O)C2CCCC2)O[C@@H]1CO	-4.2	8.6
70	C[C@H](CO)N1C[C@H](C)[C@H](CN(C)C(=O)Nc2ccc(C(F)(F)F)cc2)Oc2ccc(NS(=O)(=O)c3cn(C)cn3)cc2CC1=O	-3.6	-10.6
71	C[C@H]1CN([C@@H](C)CO)C(=O)c2cc(C3=CCCCC3)cnc2O[C@H]1CN(C)CC1CCOCC1	-29.7	-18.4
72	CCNC(=O)[C@@H]1[C@@H](CO)[C@@H]2Cn3c(cccc3=O)[C@H]1N2CCC(F)(F)F	7.3	6.9
73	COc1ccc(CN(C)C[C@@H]2Oc3ccc(NC(=O)CCCN(C)C)cc3C(=O)N([C@H](C)CO)C[C@H]2C)cc1	5.9	5.4
74	C[C@H](CO)N1C[C@H](C)[C@@H](CN(C)C(=O)Nc2ccccc2)Oc2ccc(NS(=O)(=O)c3cn(C)cn3)cc2CC1=O	16.1	14.2
75	COCC(=O)N1C[C@@H](C)[C@@H](OC)CN(C)C(=O)c2cc(NC(=O)c3cnccn3)ccc2OC[C@H]1C	4.0	0.3
76	Cc1ccc(S(=O)(=O)N(C)C[C@@H]2Oc3ccc(NC(=O)C4CC4)cc3C(=O)N([C@H](C)CO)C[C@H]2C)cc1	-4.9	-8.5
77	CNC[C@H]1OCCCC[C@H](C)Oc2ccc(NS(=O)(=O)c3ccc(C)cc3)cc2C(=O)N([C@H](C)CO)C[C@H]1C	1.4	18.1
78	C[C@@H]1CCCCO[C@@H](CN(C)C(=O)C2CCCCC2)[C@H](C)CN([C@@H](C)CO)C(=O)c2cc(NC(=O)Nc3cccc4ccccc34)ccc2O1	-3.2	8.4

Reformatted with each value named: part of the list above.
33. CO[C@@H]1CN(C)C(=O)c2cc(NC(=O)C3CC3)ccc2OC[C@@H](C)N(Cc2ccc(F)cc2)C[C@@H]1C
  Vaccinia inh = -24.3	Vaccinia inh Venus = -17.1

34. C[C@H](CO)N1C[C@H](C)[C@H](CN(C)CC2CC2)OCCCC[C@H](C)Oc2ccc(NC(=O)Nc3ccc(C(F)(F)F)cc3)cc2C1=O
  Vaccinia inh = ?	Vaccinia inh Venus = nt

Compounds shown so far containing a cyano group:
entry	canonical_smiles	Vaccinia inh	Vaccinia inh Venus
20	N#C[C@H]1[C@@H](c2ccc(C#CC3CCCC3)cc2)[C@H](CO)N1C(=O)Nc1ccc(F)cc1	?	nt
52	N#Cc1cccc(-c2ccc([C@@H]3[C@H](CO)N4CCCCN(C(=O)Nc5cccc(F)c5)C[C@@H]34)cc2)c1	?	nt

An excerpt, so the mix of outcomes need not match the whole.
